Yeast_UUG_start = modulators of start codon recognition fidelity in yeast; S. cerevisiae UUG-firefly luciferase reporter, luminescence/redox ratio; activity score, % at 18.7 µM; actives 0.13% (n = 350,000);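 active = replicate mean at a twofold rise or more, about +100% in these data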;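 note: firefly luciferase made from a UUG start codon reports start codon fidelity; reporter light over untreated wells divided by growth signal over untreated wells; some hits fall short of that in this replicate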
HIV_Env_fusion = blocks HIV Env-driven cell-cell fusion; HeLa-JRFL Env/CEM21 cell fusion, luciferase; inhibition, % at 12.3 µM; actives 1.1% (n = 360,000); AID 651610;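 active = mean replicate inhibition score of at least 50 and every replicate individually at or above 50; inconclusive = only one of the two criteria met; inactive = mean below 50 and not all replicates reaching 50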;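 note: 0% = plate neutral controls and 100% = maraviroc near 300 nM; one replicate is shown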
An asterisk follows results filed as active; ? = inconclusive; [ ] = dose if it differs, or a comment. An excerpt. The share of hits here may be higher or lower than overall.

SMILES Yeast_UUG_start HIV_Env_fusion
CN1CCN(C(=O)C[C@H]2CC[C@@H]3[C@H](COC[C@@H](O)CN3C(=O)Nc3ccc4c(c3)OCO4)O2)CC1 -3 10[16.7_µM]
C[C@H]1CN([C@@H](C)CO)C(=O)c2cc(C#CCC3CCCC3)cnc2O[C@H]1CN(C)Cc1ccccn1 -19 20[16.7_µM]
C[C@@H]1CN([C@@H](C)CO)C(=O)Cc2cc(NC(=O)Nc3cccc4ccccc34)ccc2O[C@@H]1CN(C)Cc1ccccc1 13 -24[16.7_µM]
C/C=C/c1cnc2c(c1)C(=O)N([C@@H](C)CO)C[C@H](C)[C@H](CN(C)S(=O)(=O)c1ccc(F)cc1)O2 17 7[16.7_µM]
[N-]=[N+]=NCc1ccccc1C[C@]1(C(N)=O)N=C(c2ccc(OCCCO)cc2)O[C@H]1c1ccccc1 0 -6[16.7_µM]
COc1ccc(NC(=O)N(C)C[C@H]2OCCCC[C@@H](C)Oc3ccc(N(C)C)cc3C(=O)N([C@H](C)CO)C[C@H]2C)cc1 67 -9[16.7_µM]
Cc1ccccc1S(=O)(=O)N[C@H]1CC[C@@H](CCn2cc(-c3ccc(F)cc3)nn2)O[C@H]1CO 7 12[16.7_µM]
O=S(=O)(N[C@@H]1CC[C@@H](CCn2cc(C3(O)CCCC3)nn2)O[C@H]1CO)c1ccccc1 -10 8[16.7_µM]
C[C@H](CO)N1C[C@H](C)[C@H](CN(C)CC2CC2)Oc2cc(C#Cc3ccncc3)ccc2S1(=O)=O -11 3[16.7_µM]
C[C@@H]1CN([C@@H](C)CO)C(=O)Cc2cc(NC(=O)Cc3cn(C)c4ccccc34)ccc2O[C@@H]1CN(C)C(=O)Nc1ccccc1 10 11[16.7_µM]
CCCC#Cc1ccc2c(c1)O[C@H](CN(C)S(C)(=O)=O)[C@@H](C)CN([C@@H](C)CO)S2(=O)=O 8 7[16.7_µM]
CC(=O)N(C)C[C@@H]1Oc2ncc(-c3cccc(F)c3)cc2C(=O)N([C@H](C)CO)C[C@H]1C 6 -5[16.7_µM]
CCCNC(=O)Nc1ccc2c(c1)C(=O)N(C)[C@H]1CC[C@H](CC(=O)Nc3cccc(F)c3)O[C@@H]1CO2 -7 32[16.7_µM]
C[C@H]1CN([C@@H](C)CO)C(=O)Cc2cc(N(C)C)ccc2O[C@@H]1CN(C)C(=O)Nc1cccc2ccccc12 4 1[16.7_µM]
C[C@H]1CN([C@@H](C)CO)S(=O)(=O)c2ccc(-c3ccccc3)cc2O[C@@H]1CN(C)C(=O)C1CCCCC1 31 11[16.7_µM]
C[C@@H]1CCCCO[C@H](CN(C)C(=O)CCCN(C)C)[C@@H](C)CN([C@H](C)CO)C(=O)c2cc(NS(=O)(=O)c3ccccc3)ccc2O1 -2 5[16.7_µM]
O=C(C[C@H]1C=C[C@@H](NC(=O)C2CCOCC2)[C@@H](CO)O1)NCC1CC1 -9 11[16.7_µM]
Cc1ccc(S(=O)(=O)Nc2cccc3c2O[C@@H](CN(C)Cc2ccc(-c4ccccc4)cc2)[C@@H](C)CN([C@@H](C)CO)C3=O)cc1 2 -45[16.7_µM]
C[C@@H]1CN([C@H](C)CO)C(=O)c2cc(C#CC3CC3)cnc2O[C@H]1CN(C)C(=O)c1ccccc1 5 -40[16.7_µM]
CN1C(=O)c2cc(NC(=O)c3ccccc3)ccc2OC[C@H]2O[C@@H](CC(=O)NCC3CC3)CC[C@@H]21 3 -6[16.7_µM]
Cc1ccc(S(=O)(=O)N(C)C[C@H]2OCCCC[C@H](C)Oc3ccc(NC(=O)NC4CCCCC4)cc3C(=O)N([C@H](C)CO)C[C@H]2C)cc1 5 -17[16.7_µM]
CCC(=O)N[C@@H]1CC[C@H](CC(=O)NCC2CCCCC2)O[C@H]1CO -17 -1[16.7_µM]
Cc1noc(C)c1NC(=O)N[C@H]1C=C[C@H](CC(=O)N2CCCCC2)O[C@@H]1CO -14 -35[16.7_µM]
COc1ccc(CN(C)C[C@H]2Oc3ccc(NS(=O)(=O)c4ccccc4)cc3CC(=O)N([C@@H](C)CO)C[C@@H]2C)cc1 0 -6[16.7_µM]
COc1ccc(C#Cc2ccc3c(c2)O[C@H](CN(C)C)[C@H](C)CN([C@H](C)CO)S3(=O)=O)cc1 4 -4[16.7_µM]

Among those listed so far, these contain a halogen.
SMILES Yeast_UUG_start HIV_Env_fusion
C/C=C/c1cnc2c(c1)C(=O)N([C@@H](C)CO)C[C@H](C)[C@H](CN(C)S(=O)(=O)c1ccc(F)cc1)O2 17 7[16.7_µM]
Cc1ccccc1S(=O)(=O)N[C@H]1CC[C@@H](CCn2cc(-c3ccc(F)cc3)nn2)O[C@H]1CO 7 12[16.7_µM]
CC(=O)N(C)C[C@@H]1Oc2ncc(-c3cccc(F)c3)cc2C(=O)N([C@H](C)CO)C[C@H]1C 6 -5[16.7_µM]
CCCNC(=O)Nc1ccc2c(c1)C(=O)N(C)[C@H]1CC[C@H](CC(=O)Nc3cccc(F)c3)O[C@@H]1CO2 -7 32[16.7_µM]

Other compounds follow:
SMILES Yeast_UUG_start HIV_Env_fusion
CC(C)NC(=O)N(C)C[C@@H]1Oc2ccc(NC(=O)Cn3cnnn3)cc2CC(=O)N([C@H](C)CO)C[C@@H]1C -3 8[16.7_µM]
CCCC#Cc1cnc2c(c1)C(=O)N([C@@H](C)CO)C[C@@H](C)[C@H](CN(C)CCC)O2 8 17[16.7_µM]
CNC[C@@H]1Oc2ccc(N(C)C)cc2CC(=O)N([C@H](C)CO)C[C@H]1C -2 -3[16.7_µM]
C[C@H]1CCCCO[C@H](CN(C)S(=O)(=O)c2ccc(F)cc2)[C@@H](C)CN([C@@H](C)CO)C(=O)c2cc(NC(=O)Nc3ccc(F)cc3)ccc2O1 4 ?
C[C@H]1CCCCO[C@H](CN(C)S(=O)(=O)c2cn(C)cn2)[C@@H](C)CN([C@@H](C)CO)C(=O)c2cc(NC(=O)Nc3ccc(C(F)(F)F)cc3)ccc2O1 -17 31[16.7_µM]
O=C(C[C@@H]1C=C[C@H](NC(=O)Cc2ccccn2)[C@H](CO)O1)NCCc1ccncc1 -4 -10[16.7_µM]
C[C@H](CO)N1C[C@H](C)[C@@H](CN(C)C(=O)Nc2cccc3ccccc23)OCCCC[C@H](C)Oc2ccc(NC(=O)C3CCCCC3)cc2C1=O 9 10[16.7_µM]
C[C@@H]1CN([C@H](C)CO)S(=O)(=O)c2ccc(-c3cncnc3)cc2O[C@@H]1CN(C)C -8 -1[16.7_µM]
COCC(=O)N[C@@H]1CC[C@@H](CC(=O)NCc2ccc(Cl)cc2)O[C@H]1CO -1 -17[16.7_µM]
Cc1ccc(S(=O)(=O)N(C)C[C@@H]2Oc3c(NS(C)(=O)=O)cccc3C(=O)N([C@H](C)CO)C[C@H]2C)cc1 -6 0[16.7_µM]
COc1ccc(NC(=O)Nc2ccc3c(c2)C(=O)N([C@H](C)CO)C[C@H](C)[C@H](CN(C)S(=O)(=O)c2c(C)noc2C)OCCCC[C@@H](C)O3)cc1 8 -7[16.7_µM]
C[C@H]1CN([C@@H](C)CO)S(=O)(=O)c2ccc(-c3cccc(F)c3)cc2O[C@H]1CN(C)C(=O)c1cccc(F)c1 7 21[16.7_µM]
COc1ccc(NC(=O)N(C)C[C@@H]2Oc3c(NC(=O)c4ccc(-c5nccs5)cc4)cccc3C(=O)N([C@H](C)CO)C[C@H]2C)cc1 9 10[16.7_µM]
C[C@H](CO)N1C[C@H](C)[C@@H](CN(C)C(=O)Cc2ccncc2)Oc2ncc(C3=CCCCC3)cc2C1=O 2 10[16.7_µM]
Cc1noc(C)c1NC(=O)Nc1ccc2c(c1)C(=O)N([C@H](C)CO)C[C@@H](C)[C@H](CN(C)C(=O)Nc1ccc(C(F)(F)F)cc1)OCCCC[C@H](C)O2 -5 -9[16.7_µM]
C[C@@H]1CN([C@H](C)CO)C(=O)c2cc(NC(=O)C3CCCCC3)ccc2O[C@@H](C)CCCCO[C@H]1CN(C)Cc1ccc(C(F)(F)F)cc1 -4 ?
C[C@H](CO)N1C[C@H](C)[C@@H](CN(C)Cc2ccc(C(F)(F)F)cc2)Oc2ccc(NC(=O)Cc3ccccc3)cc2C1=O -1 -1[16.7_µM]
C[C@@H]1CN([C@H](C)CO)C(=O)Cc2cc(NS(C)(=O)=O)ccc2O[C@H]1CN(C)S(=O)(=O)c1ccccc1 -10 10[16.7_µM]
C[C@@H]1CN([C@H](C)CO)C(=O)c2cc(NC(=O)Cc3ccccc3)ccc2O[C@@H](C)CCCCO[C@H]1CN(C)S(=O)(=O)c1ccc(Cl)cc1 -7 28[16.7_µM]
Cc1ccc(S(=O)(=O)N(C)C[C@H]2Oc3ncc(-c4ccccc4)cc3C(=O)N([C@H](C)CO)C[C@H]2C)cc1 3 7[16.7_µM]
COc1ccc(NC(=O)N(C)C[C@@H]2Oc3ccc(NS(=O)(=O)c4ccc(OC)cc4)cc3CC(=O)N([C@@H](C)CO)C[C@H]2C)cc1 0 -47[16.7_µM]
O=C(C[C@@H]1CC[C@H](NC(=O)Nc2cc(F)ccc2F)[C@H](CO)O1)NCc1ccc2c(c1)OCO2 -3 3[16.7_µM]
C[C@H](CO)N1C[C@H](C)[C@@H](CN(C)S(=O)(=O)c2cccs2)Oc2ccc(NC(=O)c3ccncc3)cc2CC1=O -7 -11[16.7_µM]
CN1C(=O)c2cc(NC(=O)C3CCOCC3)ccc2OC[C@@H]2O[C@@H](CC(=O)NCc3ccccc3F)CC[C@@H]21 19 -7[16.7_µM]
O=C(C[C@H]1C[C@H]2c3cc(NC(=O)c4cccnc4)ccc3O[C@H]2[C@@H](CO)O1)NCc1ccccc1F -16 9[16.7_µM]

3 records drawn at random from the list so far, as already listed:
SMILES Yeast_UUG_start HIV_Env_fusion
CCCC#Cc1cnc2c(c1)C(=O)N([C@@H](C)CO)C[C@@H](C)[C@H](CN(C)CCC)O2 8 17[16.7_µM]
O=C(C[C@@H]1CC[C@H](NC(=O)Nc2cc(F)ccc2F)[C@H](CO)O1)NCc1ccc2c(c1)OCO2 -3 3[16.7_µM]
C[C@@H]1CN([C@H](C)CO)S(=O)(=O)c2ccc(-c3cncnc3)cc2O[C@@H]1CN(C)C -8 -1[16.7_µM]

New compounds follow:
SMILES Yeast_UUG_start HIV_Env_fusion
C[C@H]1CCCCO[C@@H](CN(C)C(=O)NC2CCCCC2)[C@@H](C)CN([C@@H](C)CO)C(=O)c2cc(NC(=O)Nc3ccc(C(F)(F)F)cc3)ccc2O1 3 -10[16.7_µM]
CCCC(=O)Nc1ccc2c(c1)C(=O)N(C)C[C@H](OC)[C@@H](C)CN(C(C)=O)[C@@H](C)CO2 4 5[16.7_µM]
C[C@@H]1CN([C@@H](C)CO)C(=O)c2cc(-c3ccc(F)cc3)cnc2O[C@@H]1CN(C)CC1CC1 -1 1[16.7_µM]
CCCC#Cc1ccc2c(c1)O[C@H](CN(C)Cc1ccccn1)[C@H](C)CN([C@@H](C)CO)S2(=O)=O -5 -3[16.7_µM]
C[C@@H]1CCCCO[C@@H](CN(C)C(=O)Nc2ccccc2)[C@H](C)CN([C@H](C)CO)C(=O)c2cc(NC(=O)NC3CCCCC3)ccc2O1 -11 -25[16.7_µM]
C[C@@H]1CCCCO[C@@H](CN(C)S(=O)(=O)c2cn(C)cn2)[C@@H](C)CN([C@H](C)CO)C(=O)c2cc(NC(=O)Nc3ccccc3)ccc2O1 1 -7[16.7_µM]
C[C@@H](NC(=O)C[C@@H]1CC[C@@H]2[C@H](COC[C@@H](O)CN2Cc2cc(F)ccc2F)O1)c1ccccc1 -11 -3[16.7_µM]
COCC#Cc1cnc2c(c1)C(=O)N([C@@H](C)CO)C[C@H](C)[C@H](CN(C)C(=O)Nc1ccccc1OC)O2 6 -14[16.7_µM]
CCCC#Cc1ccc2c(c1)O[C@H](CN(C)S(=O)(=O)c1cccc(F)c1)[C@@H](C)CN([C@@H](C)CO)S2(=O)=O -1 11[16.7_µM]
C[C@@H]1CN([C@@H](C)CO)C(=O)c2cc(/C=C/c3ccccc3)cnc2O[C@@H]1CN(C)C(=O)c1cccc(F)c1 15 26[16.7_µM]
CC(C)NC(=O)N(C)C[C@H]1Oc2ccc(NC(=O)Cn3cnnn3)cc2CC(=O)N([C@H](C)CO)C[C@H]1C -16 4[16.7_µM]
CCCN(C)C[C@@H]1Oc2cc(C#CC3CCCC3)ccc2S(=O)(=O)N([C@H](C)CO)C[C@@H]1C 4 14[16.7_µM]
O=C(O)C[C@@H]1C[C@H]2c3cc(NC(=O)c4ccc5c(c4)OCO5)ccc3O[C@H]2[C@@H](CO)O1 -17 -13[16.7_µM]
CC(C)C#Cc1ccc2c(c1)O[C@H](CN(C)C(=O)c1cccnc1)[C@H](C)CN([C@@H](C)CO)S2(=O)=O 12 -3[16.7_µM]
C[C@@H]1CN([C@H](C)CO)C(=O)Cc2cc(NC(=O)NC3CCCCC3)ccc2O[C@@H]1CN(C)S(=O)(=O)c1cccs1 29 7[16.7_µM]
C[C@@H]1CN([C@@H](C)CO)C(=O)c2cc(NS(=O)(=O)c3cccs3)ccc2O[C@@H]1CN(C)Cc1ccc(Cl)c(Cl)c1 7 4[16.7_µM]
Cc1noc(C)c1NC(=O)Nc1ccc2c(c1)CC(=O)N([C@H](C)CO)C[C@@H](C)[C@@H](CN(C)S(C)(=O)=O)O2 8 3[16.7_µM]
